High-throughput results (PubChem)
Methyltransferases: Primary Screen for Target Class Profiling of Small Molecule Inhibitors of Methyltransferases. AID 1745853, 2022. purified enzyme, MTase-Glo SAH luminescence; active compounds read low. calls only at 40 µM. 3.9% of 25,000 active; active = -50% or lower on at least one of six enzymes; inconclusive = the cases between; inactive = as a rule above -30% on all six;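 further: enzymes were COMT GAMT GNMT HNMT NNMT and PNMT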
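Each enzyme was assayed with SAM and its substrate. SAH formation detected by MTase-Glo luminescence; single-point 40 uM screen[…].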
Calls only; i = inactive; ? = inconclusive; + = active, no number. On the % scale 0 is the no-effect control and ±100 the full control effect. Some of the compounds tested; count on the stated rates, not on these rows.

The first three entries (preview)
SMILES | Methyltransferases
CCC(C)NC(=O)c1ccc2c(=O)n(C)c3nn(CC(=O)Nc4cc(C)cc(C)c4)c(=O)n3c2c1 (configuration not stated) | i
c1ccc(-c2ccc(CNc3nc(-c4ccccn4)nnc3-c3ccccc3)cc2)cc1 | i
COc1ccccc1C1CCN(Cc2cn(-c3ccccc3)nn2)CC1 | i

This part in full, previewed entries included:
SMILES | Methyltransferases
CCC(C)NC(=O)c1ccc2c(=O)n(C)c3nn(CC(=O)Nc4cc(C)cc(C)c4)c(=O)n3c2c1 (configuration not stated) | i
c1ccc(-c2ccc(CNc3nc(-c4ccccn4)nnc3-c3ccccc3)cc2)cc1 | i
COc1ccccc1C1CCN(Cc2cn(-c3ccccc3)nn2)CC1 | i
CCc1ccc(CNC(=O)c2cc3n(n2)CC(C)(C(=O)NCCC(C)C)N(C)C3=O)cc1 (configuration not stated) | i
COC(=O)C[C@@H]1C(C(=O)O)=CO[C@@H](O[C@@H]2O[C@H](CO)[C@@H](O)[C@H](O)[C@H]2O)/C1=C\COC(=O)/C=C/c1ccc(O)c(OC)c1 | i
CCN1CCN(c2ccc(Nc3ccc(-c4ccc(C(N)=O)cc4)n4ncnc34)cc2)CC1 | +
CC(C)CNC(=O)c1ccc2c(=O)n(CC(C)C)c3nn(Cc4cccc(Cl)c4)c(=O)n3c2c1 | i
COc1ccccc1CCNC(=O)c1cc2n(n1)CC(C)(C(=O)NC1CCCCC1)N(C)C2=O (configuration not stated) | i
Cc1[nH]c(-c2ccccc2)nc1C(=O)N1CCCC[C@H](N(C)C)C1 | i
COc1ccc(CN2C(=O)c3ccc(-c4ccco4)n3CC2(C)C(=O)NC2CCCCC2)cc1 (configuration not stated) | i
Cc1nnc(-c2ccc(-c3ccc(C(=O)Nc4ccc(O)c(N5CCN(C)CC5)c4)cc3)c(C)c2)o1 | i
CCOc1ccccc1NC(=O)N1Cc2c(sc3c2CCCC3)-n2cccc2C1c1cccc(F)c1 (configuration not stated) | i
CCN1C(=O)c2cc(C(=O)NCc3ccccn3)nn2CC1(C)C(=O)NC1CCCC1 (configuration not stated) | i
N#Cc1ccc(C(=O)N2CCC(Cc3nc(-c4cccnc4)n[nH]3)C2)cc1 (configuration not stated) | i
COC(=O)c1cc2n(n1)CC(C)(C(=O)NC1CCC(C)CC1)N(CCc1cccs1)C2=O (configuration not stated) | i
COc1cccc(CN2CCOC3CCN(Cc4ccccc4Cl)CC3C2=O)c1 (configuration not stated) | i
CC1(C(=O)NC2CCCCCCC2)Cn2c(ccc2-c2ccccc2)C(=O)N1CCc1cccs1 (configuration not stated) | i
CCC1c2ccc(C)n2CCN1C(=O)Nc1ccc(Br)cc1F (configuration not stated) | i
CC1CCN(CCCNC(=O)CCc2nnc3n(Cc4ccc(F)cc4)c(=O)c4ccccc4n23)CC1 | +
COc1cccc([C@H]2Nc3ccc(S(=O)(=O)Nc4ccccc4F)cc3C3C=CCC32)c1OC (some centres not stated) | i
Cc1cccc(CNC(=O)C2(C)Cn3cnc(C(=O)NCc4ccccn4)c3C(=O)N2C2CC2)c1 (configuration not stated) | i
C=CC(C)(CCC=C(C)C)O[C@@H]1O[C@H](CO)[C@@H](O)[C@H](O)[C@H]1O (some centres not stated) | i
CCN(CC)CCCNC(=O)CCc1nnc2n(Cc3ccc(F)cc3)c(=O)c3ccccc3n12 | +
Nc1ncnc2c1ncn2C1CCCC1 | i
Cc1cccc(Cn2nc3n(Cc4ccccc4)c(=O)c4ccc(C(=O)NC5CCCC5)cc4n3c2=O)c1 | i
CCCn1c(C)cnc1CC1CCCN(S(=O)(=O)c2cc(OC)ccc2OC)C1 (configuration not stated) | i
Cc1cc2c(cc3n2CC(C)(C(=O)NC2CCCCC2)N(Cc2ccccc2Cl)C3=O)o1 (configuration not stated) | i
c1ccc(CCCc2noc(-c3ccc(N4CCOCC4)nc3)n2)cc1 | i
CNC(=O)N1CCC(C2CCN(C(=O)c3cnn(C)c3)C2)CC1 (configuration not stated) | i
CSCC[C@H](N)C(=O)N1CCC2(CCC(=O)N(Cc3ccccc3)C2)CC1 | i
Cn1ccc(C(=O)N2CCC3(CC2)CC(=O)N(C/C=C/c2ccccc2)C3)n1 | i
COc1ccc2cc3n(c2c1)CC(C)(C(=O)NC1CCCCCC1)N(CCN1CCCCC1C)C3=O (configuration not stated) | i
CC(C)S(=O)(=O)N1CCC2(CC1)CC1C(=O)NCCN1C2 (configuration not stated) | i
Cc1nc(N2CCCC2)nc(N2CCC3(CC2)OCCCC3O)c1C (configuration not stated) | i
COc1ccc(C(=O)C2CCCN(Cc3csc(C(C)=O)c3)C2)c(OC)c1 (configuration not stated) | i
CC(=O)C1=CCC2C3CC=C4CC(O)CC(O)C4(C)C3C(O)CC12C (configuration not stated) | i
O=C1CCN(C(=O)C2(c3ccccc3)CC2)CCCCCCN1 | i
COc1cc2ncnc(Nc3cc(Br)c(O)c(Br)c3)c2cc1OC | i
Cn1c(=O)c2ccc(C(=O)NC3CCCCC3)cc2n2c(SCc3cccc(Cl)c3)nnc12 | i
Cc1oc(S(=O)(=O)N2CCCCC2)cc1NC(=O)Nc1ccccc1 | i

Reprinted at random: 2 records from the list.
SMILES | Methyltransferases
Cc1nc(N2CCCC2)nc(N2CCC3(CC2)OCCCC3O)c1C (configuration not stated) | i
CNC(=O)N1CCC(C2CCN(C(=O)c3cnn(C)c3)C2)CC1 (configuration not stated) | i

Continued.
SMILES | Methyltransferases
COc1ccc(OC)c2c1cc1n2CC(C)(C(=O)NC2CCCCC2)N(CCC(C)C)C1=O (configuration not stated) | i
Cc1ccc(NC(=O)N[C@H]2C[C@@](O)(C(=O)N[C@H]3CCCNC3=O)C[C@@H](O)[C@@H]2O)cc1 | i
Cc1noc([C@H]2CCN(CC3CC3)C[C@H]2NC(=O)C2CCOCC2)n1 | i
CCOC(=O)[C@H](CCc1ccccc1)N[C@@H](C)C(=O)N1[C@H](C(=O)O)C[C@H]2CCCC[C@@H]21 | ?
C=C1C(=O)O[C@@H]2CC(C)=C([C@@H](C)CCCOC(C)=O)[C@@H](O)[C@H]12 | +
Cc1cc(C)n(CCc2nc3c4ccccc4nc(N4CCN(c5cccc(C)c5C)CC4)n3n2)n1 | ?
CCOCCCNC(=O)C1c2c(n(C)c3ccccc23)SCC(=O)N1c1cc(OC)cc(OC)c1 (configuration not stated) | i
CCCn1nc(CNC(=O)c2cc(F)ccc2F)c2ccccc21 | i
O=C1CCc2ccccc2O1 | ?
CC(C)C(O)(CO)CCO[C@@H]1O[C@H](CO[C@H]2OC[C@](O)(CO)[C@H]2O)[C@@H](O)[C@H](O)[C@H]1O (some centres not stated) | i
CC(C)C(C(=O)N(C)C(C)C(N)=O)N(C)C(=O)C1CCCN1C(=O)/C=C/C=C/C(O)C(C)O (configuration not stated) | i
CN(C)C[C@H]1O[C@H](Cc2cc(CN(C)Cc3ccccc3)on2)CC[C@@H]1O | i
Cc1nc(N)ncc1C(=O)N(C)Cc1cn[nH]c1-c1ccccc1 | i
CC(=O)NC1CC(=O)C23C(=O)NC(Cc4c[nH]c5ccccc45)C2C(C)=C(C)C(O)C3/C=C/CC(C)/C=C(/C)C(O)C1O (configuration not stated) | i
CCCn1c(C)cnc1CCNC(=O)CC1CCN(C(C)=O)CC1 | i
CCn1c(CO)nnc1C1CC(NC(=O)c2nn(C)c(C)c2Cl)C1 (configuration not stated) | i
O=C(C1CC(=O)N(C2CC2)C1)N1CCC(Oc2ccccc2Cl)CC1 (configuration not stated) | i
CCCn1c(=O)c2ccccc2n2c(SCC(=O)Nc3ccc(C)c(C)c3)nnc12 | i
C[C@]12CC[C@@H]3c4ccc(O)cc4C[C@@H](CCCCCCCCCS(=O)CCCC(F)(F)C(F)(F)F)[C@H]3[C@@H]1CC[C@@H]2O (some centres not stated) | i
Cc1cccc(NS(=O)(=O)c2ccc3[nH]c4c(c3c2)CCCC4)c1C | i

A different layout for 4 compounds above:
structure: Nc1ncnc2c1ncn2C1CCCC1
  Methyltransferases: i
structure: CN(C)C[C@H]1O[C@H](Cc2cc(CN(C)Cc3ccccc3)on2)CC[C@@H]1O
  Methyltransferases: i
structure: Cc1cccc(CNC(=O)C2(C)Cn3cnc(C(=O)NCc4ccccn4)c3C(=O)N2C2CC2)c1 (configuration not stated)
  Methyltransferases: i
structure: Cc1nnc(-c2ccc(-c3ccc(C(=O)Nc4ccc(O)c(N5CCN(C)CC5)c4)cc3)c(C)c2)o1
  Methyltransferases: i

Next section.
SMILES | Methyltransferases
CC(NC(=O)CNC(=O)c1cccc(-c2ccc(C(F)(F)F)cc2)c1)c1ccc(F)cc1 (configuration not stated) | i
Cc1cc(C(=O)N2CCC3(CC2)CC(N2CCN(c4ccccn4)CC2)CCO3)n[nH]1 (configuration not stated) | i
Cc1cnc(C(=O)NC2CC(c3nnc(CO)n3C3CC3)C2)[nH]1 (configuration not stated) | i
CN(CC(=O)NCCc1ccccc1)S(=O)(=O)c1ccc2[nH]c3c(c2c1)CCCC3 | i
COC(=O)c1cc2n(n1)CC(C)(C(=O)NC1CCCCC1)N(c1ccccc1F)C2=O (configuration not stated) | i
Cc1cccc(NC(=O)CSc2nnc3n(CCCOC(C)C)c(=O)c4ccccc4n23)c1 | i
CCCN1C(=O)c2c(C(=O)NCc3cc(OC)ccc3OC)ncn2CC1(C)C(=O)NCc1ccccc1 (configuration not stated) | i
Cc1cc2c(cc3n2CC(C)(C(=O)NC2CCCCCC2)N(CCc2ccc(Cl)cc2)C3=O)o1 (configuration not stated) | i
O=C1CN(Cc2ccc(Br)cc2)S(=O)(=O)c2ccccc2N1Cc1cccc(F)c1 | i
C=C1CCC2C(C)(C)CCCC2(C)C1CC/C(C)=C\CO (configuration not stated) | ?
CC1(C(=O)NC2CCCC2)Cn2c(cc3ccccc32)C(=O)N1Cc1ccc2c(c1)OCO2 (configuration not stated) | i
Cc1cnc(-c2cccnc2)n1CC1CCN(S(=O)(=O)c2ccccc2)CC1 | i
CC(C)=CCNc1ncnc2c1ncn2[C@@H]1O[C@H](CO)[C@@H](O)[C@H]1O | ?
CCC(=O)N1CCC(CC(=O)N2CCOCC2)C1 (configuration not stated) | i
Fc1ccc(OC2CN(CC3CCCCC3)C2)c(F)c1 | i
O=C1CCC2(CCCN(c3ncccc3F)C2)CN1Cc1ccncc1 (configuration not stated) | i
CC(C)Oc1ccc(CNC(=O)Cn2ccc3cc(S(=O)(=O)N4CCCCC4)ccc32)cc1 | i
CC1(C(=O)NC2CCCC2)Cn2c(ccc2-c2ccco2)C(=O)N1Cc1ccccc1 (configuration not stated) | i
CCCCN1C(=O)c2cc(C(=O)NCCc3c[nH]c4ccccc34)nn2CC1(C)C(=O)NC1CCCC1 (configuration not stated) | i
C[C@@H]1O[C@@H](O[C@@H]2[C@@H](O)[C@H](O[C@H]3CC[C@@]4(C)C(CC[C@]5(C)C4CC=C4[C@@H]6CC(C)(C)CC[C@]6(C(=O)O[C@@H]6O[C@H](CO)[C@@H](O)[C@H](O)[C@H]6O)CC[C@]45C)C3(C)C)O[C@H](C(=O)O)[C@H]2O)[C@H](O)[C@H](O)[C@H]1O (some centres not stated) | i
Cc1ccc(NC(=O)CSc2nnc3n(Cc4ccccc4)c(=O)c4ccccc4n23)cc1 | i
CC1CCC(NC(=O)C2(C)Cn3c(cc4sccc43)C(=O)N2Cc2ccccc2)CC1 (configuration not stated) | i
CCCn1c(=O)c2ccc(Cl)cc2n2c(=O)n(CC(=O)c3c(C)[nH]c4ccccc34)nc12 | i
CCOC(=O)c1cc2n(n1)CC(C)(C(=O)NCc1ccccc1)N(Cc1ccc(C)o1)C2=O (configuration not stated) | i
O=C(NC(NC(=S)Nc1ccc(F)c([N+](=O)[O-])c1)C(Cl)(Cl)Cl)C(c1ccccc1)c1ccccc1 (configuration not stated) | i
COCCN1CCC2(CCC1=O)CN(c1ccc(C#N)cn1)CCN2C (configuration not stated) | i
CCc1nc(-c2c3n(c(=O)n(CC(=O)NCc4cccc(OC)c4)c2=O)CCCC3)no1 | i
Cc1cc(C(=O)N2CCC(F)(c3nc(-c4ccncc4)no3)CC2)n[nH]1 | i
O=C(Cn1c(=O)oc2cc(S(=O)(=O)NCc3ccccc3)ccc21)NC1CCCC1 | i
CN(CC(=O)N[C@H]1CCOC[C@H]1C1CCOCC1)Cc1ccncc1 | i
C[C@@H]1O[C@@H](O[C@H]2[C@H](O[C@H]3CC[C@@]4(C)C(CC[C@]5(C)C4C=C[C@]46OC[C@@]7(CCC(C)(C)C[C@H]74)[C@@H](O[C@@H]4O[C@@H](C)[C@H](O)[C@@H](O)[C@H]4O)C[C@]65C)[C@]3(C)CO)O[C@H](CO)[C@@H](O)[C@@H]2O[C@@H]2O[C@H](CO)[C@@H](O)[C@H](O)[C@H]2O)[C@H](O)[C@H](O)[C@H]1O (some centres not stated) | i
COc1ccccc1CNc1nc2c(S(=O)(=O)c3ccccc3)nnn2c2ccc(Cl)cc12 | i
CCOC(=O)C1CCN(C(=O)C2COC3(CCCCC3)N2C(=O)c2cc(F)cc(F)c2)CC1 (configuration not stated) | i
O=C1NC2(CCN(C(=O)c3cccnc3)C2)Oc2ccccc21 (configuration not stated) | i
COCCn1c(=O)c(C(=O)N2CCN(C(C)=O)CC2)nc2cccnc21 | i
O=C(NC1CCCC1)c1cc2cn(C3CC3)cc2s1 | i
Cn1c(=O)c2ccc(C(=O)NC3CCCCC3)cc2n2c(=O)n(CC(=O)NC3CCCC3)nc12 | i
O=C(NCc1ccc(Cl)cc1)c1ccc2c(=O)nc3c(-c4ccccc4F)n[nH]n3c2c1 | ?
CN(CCCNC(=O)CCCc1nnc2n3nc(-c4ccccc4)nc3c3ccccc3n12)Cc1ccccc1 | +
Cc1ocnc1C(=O)N1CCC2(CC1)CN(CC(C)c1ccccc1)C(=O)O2 (configuration not stated) | i
